Compound activity deposited in PubChem BioAssay by National Center for Advancing Translational Sciences (NCATS).
D2 ag: Beta-Arrestin HTS for Positive Allosteric Modulators of the Human D2 Dopamine Receptor: Agonists | 360,000 compounds, 0.084% hits | DiscoveRx PathHunter D2 beta-arrestin, luminescence, 90 min; 100% = 57 uM dopamine signal | activation, % (no concentration beside the values) | D(2) dopamine receptor (Homo sapiens), P14416; in the data active = activation above about 40%; inconclusive = about 15% to 40%; inactive = below about 15%; also: compound concentration not given in the record; the text of the record calls up to 30% inactive
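Agonist mode: compounds alone added to overnight-plated D2 PathHunter cells for 90 min at 37 C, with 57 uM final dopamine (EC100) defining full response. Beta-arrestin recruitment detected by chemiluminescent reagent, read after 1 h at ambient temperature.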
gsp antagonist: qHTS for Antagonists of gsp, the Etiologic Mutation Responsible for Fibrous Dysplasia/McCune-Albright Syndrome: qHTS; gsp-mutant cells, cAMP HTRF, 30 min; control for the full effect not named in the record; Potency, µM (highest dose often 76.9 µM), without a hit: at the highest dose activity change, negative = inhibition, most hits filed as inhibitors; 340,000 compounds, 0.4% hits; active = falling curve of any shape with a large fitted effect; inconclusive = falling curve, mostly with a smaller effect; inactive = flat or rising curve; cell line not stated here;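 also: intracellular cAMP measured with PDE inhibitor Ro 20-1724 present during compound exposure; potency is read from the fitted curve at half-maximal effect; % is scaled to controls: 0 for no effect and ±100 for the full control effect; nearly all actives have a fitted effect of over 65% in size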
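Cells, 2000/well, grown 16–24 h in DMEM 10% FBS with 0.5 mg/ml G418, then compounds plus […] (300 uM addition stock), 30 min at 37C. cAMP read by HTRF (cAMP-d2 and anti-cAMP antibody-K in lysis buffer) after 30 min RT.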
gsp ag: qHTS for Agonist of gsp, the Etiologic Mutation Responsible for Fibrous Dysplasia/McCune-Albright Syndrome: qHTS | gsp mutant cells, cAMP HTRF, 30 min; control for the full effect not named in the record | Potency, µM (titrated, usually from 76.9 µM), without a hit: at the highest dose activation (cAMP increase), actives largely listed as activators | 340,000 compounds, 0.13% hits | AID 624287, 2012; active = well fitted activation curve with a large enough effect; inconclusive = small, poorly fitted or top-dose-only effect, or another doubt; inactive = no such curve, though single readings can be large or run the other way; cell line not stated here;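 also: phosphodiesterase inhibitor Ro 20-1724 added with compounds to block cAMP breakdown; potency is read from the fitted curve at half-maximal effect; nearly all actives have a fitted effect of over 60% in size; about a fifth of the inactives were tested at one dose only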
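Cells stably selected in G418 were plated at 2000/well, grown 16-24 hr, then given compounds in DMSO with the PDE inhibitor […] (300 uM solution added) for 30 min at 37C; cAMP was read by HTRF.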
CtBP-E1A inh: qHTS Assay for Inhibitors of the CtBP/E1A Interaction | AlphaScreen GST-E1A/His-CtBP binding, 1536-well; active compounds read low; control for the full effect not named in the record | CtBP / adenovirus E1A interaction (AlphaScreen) | AID 651724, 2012 | activity change, % (no concentration beside the values) | 340,000 compounds, 0.49% hits; in the data active means activity change below about -65%; inconclusive means about -30% to -65%; inactive means above about -30%; also: % is scaled to controls: 0 for no effect and ±100 for the full control effect
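Steps: dispense buffer (Tris pH 8.0, NaCl 300 mM, TCEP 1 mM, BSA, Tween 20); add 5X protein mix (GST-E1A, His-CtBP, 125 nM each); pin 23 nL compound; 2 h at 37 °C, dark; add 5X beads (50 ug/mL); 1 h; read.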
Six1-Eya2 blk: qHTS Assay for Inhibitors of the Six1/Eya2 Interaction. activity change, % (test concentration not listed). Homeobox protein SIX1 (Homo sapiens) + Protein phosphatase EYA2 (Homo sapiens), …. 360,000 compounds, 0.56% hits. AlphaScreen GST-Six1/His-Eya2 binding, biochemical; active compounds read low; control for the full effect not named in the record. AID 651725, 2012; in the data active = activity change below about -65%; inconclusive = about -30% to -65%; inactive = above about -30%; also: % is scaled to controls: 0 for no effect and ±100 for the full control effect
Target sequence (O00167 whole entry, looked up): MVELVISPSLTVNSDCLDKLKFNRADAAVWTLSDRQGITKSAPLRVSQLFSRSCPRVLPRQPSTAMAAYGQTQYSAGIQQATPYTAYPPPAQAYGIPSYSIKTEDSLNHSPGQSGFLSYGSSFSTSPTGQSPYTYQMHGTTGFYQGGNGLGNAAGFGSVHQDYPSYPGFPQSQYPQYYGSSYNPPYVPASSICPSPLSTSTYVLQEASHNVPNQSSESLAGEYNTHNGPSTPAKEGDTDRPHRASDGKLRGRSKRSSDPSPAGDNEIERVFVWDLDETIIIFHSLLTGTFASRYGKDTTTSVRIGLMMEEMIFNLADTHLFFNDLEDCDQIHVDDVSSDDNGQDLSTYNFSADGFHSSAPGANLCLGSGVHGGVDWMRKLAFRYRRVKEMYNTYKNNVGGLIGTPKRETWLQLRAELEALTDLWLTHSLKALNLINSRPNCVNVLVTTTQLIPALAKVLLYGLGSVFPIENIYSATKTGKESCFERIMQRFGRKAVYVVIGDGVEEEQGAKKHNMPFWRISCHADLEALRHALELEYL
Target sequence (Q15475 whole entry, looked up): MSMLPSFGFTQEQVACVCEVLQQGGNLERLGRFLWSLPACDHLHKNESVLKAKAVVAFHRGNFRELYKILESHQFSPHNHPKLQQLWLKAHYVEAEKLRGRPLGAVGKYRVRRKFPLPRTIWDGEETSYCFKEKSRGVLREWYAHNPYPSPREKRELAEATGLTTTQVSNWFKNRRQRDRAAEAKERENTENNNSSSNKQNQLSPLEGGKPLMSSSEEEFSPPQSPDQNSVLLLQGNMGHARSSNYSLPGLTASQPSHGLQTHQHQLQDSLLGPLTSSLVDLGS
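Homogeneous AlphaScreen proximity assay pairing GST-Six1 with His-tagged Eya2 (added as 5X mix: 250 nM and 500 nM) in 50 mM Tris pH 8.0, 300 mM NaCl, 1 mM TCEP. Glutathione donor and nickel acceptor beads; 1 h, 37 °C, dark.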
D2 potentiator: Beta-Arrestin HTS for Positive Allosteric Modulators of the Human D2 Dopamine Receptor: Potentiators. 360,000 compounds, 0.23% hits. DiscoveRx D2 beta-arrestin cells, luminescence, 90 min; 100% = 57 uM dopamine signal. potentiation, % (concentration not given with the values); active = potentiation of 50% or more; inconclusive = 30% to 50%; inactive = 30% or less;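 also: tested on top of an EC20 dose of dopamine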
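PathHunter beta-arrestin assay in DiscoveRx D2 cells. Compounds were added with an EC20 of dopamine (50 nM final) for 90 min at 37 deg C. Luminescence was read 1 h after detection reagent, with 57 uM dopamine as the EC100 control.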
Starred values were filed as active, the others as inactive; ? = inconclusive; · = not tested or not shown; [ ] = another dose, or the depositor's remark. Random draw from the library; about 1.4% have a hit in one of these screens.

Order of values – D2 ag	gsp antagonist	gsp ag	CtBP-E1A inh	Six1-Eya2 blk	D2 potentiator
> O=C(CSc1nnc(COc2ccc(Cl)cc2)o1)N1c2ccccc2CCc2ccccc21
    0.2	4%	5%	-9	-1	-16
> O=C(O)c1ccc(N2C(=O)CSC2c2cccc([N+](=O)[O-])c2)cc1 (stereo not drawn)
    2.6	1%	-59%[inhibitor]	-2	10	-7
> O=C(CCc1nc(-c2ccccc2Cl)no1)NCC1CCCO1 (stereo not drawn)
    -1.6	5%	-33%[inhibitor]	10	6	-9
> CCOC(=O)COc1ccc2c(c1)C(=O)CC(C)(C)O2
    -0.3	-15%	11%	10	4	-5
> CCn1cc(Br)c(C(=O)Nc2ccc(F)c(Cl)c2)n1
    -1.9	-11%	-41%[inhibitor]	10	5	12
> O=C(c1cccc2c1-c1ccccc1/C2=N/O)N1CCCCC1
    -2.7	-32%	?	-26	-22	-1
> Cn1nc(C(=O)OCC(=O)Nc2ccc(SC(F)F)cc2)c2ccccc2c1=O
    3.2	?	-2%	7	-9	-2
> COc1ccc2nc(N3C(=O)/C(=C/c4ccc(Cl)cc4)NC3=S)sc2c1
    -3.1	8%	-13%[15.4 µM]	-20	2	-8
> CN(Cc1nc2ccccc2c(=O)[nH]1)C(=O)c1cccc(NC(=O)c2cccs2)c1
    -0.2	-13%	2%	-2	-2	-22
> CN(C)C(=O)c1ccc(NC(=O)c2cccc(-n3cnnn3)c2)cc1
    -0.1	·	-41%[inhibitor]	-1	11	-14
> CCOC(=O)c1cn2nc(Oc3cccc(F)c3)ccc2n1
    -7.9	-1%	12%	3	-18	-9
> CC1(C(=O)NS(=O)(=O)c2cccc(OC(F)F)c2)CCN1C(=O)COc1ccc(Cl)cc1 (stereo not drawn)
    1.0	·	·	2	0	-3
> COc1ccc(OC)c(C(=O)N/N=C/c2ccccn2)c1
    0.4	-3%	-4%	·	1	-5
> O=S(=O)(Nc1cccc(-n2cnnn2)c1)c1cccc(Cl)c1
    -1.7	-9%	6%	-1	3	0
> COc1ccc(N(CC(=O)NCCSCc2ccccc2Cl)S(C)(=O)=O)cc1Cl
    -4.8	-20%	0%	-2	0	-15
> CC(C)(C)c1ccc(-c2n[nH]c(=S)n2-c2ccccc2)cc1
    -7.8	?	-28%[15.4 µM]	0	0	-3
> NC(=O)C1CCN(C(=O)C2CCN(S(=O)(=O)c3ccccc3)CC2)CC1
    -6.1	4%	?	-1	4	-3
> COc1ccc(CN2CCN(Cc3ccccc3F)CC2)cc1OC
    -3.1	1%	-25%	·	0	-43
> COc1ccccc1-c1nnc(SCc2nc3ccccc3s2)n1C
    -1.0	-12%	4%	-1	-1	-2
> CC(C)CNC(=O)C1(C)CCCN1C(=O)CCc1cccs1 (stereo not drawn)
    -6.3	·	·	-7	-7	-8

The results go on:
Order of values – D2 ag	gsp antagonist	gsp ag	CtBP-E1A inh	Six1-Eya2 blk	D2 potentiator
> COc1cccc(S(=O)(=O)NCc2ccc(C(=O)N3CCN(C)CC3)cc2)c1
    0.7	6%	10%	-16	1	-9
> O=C1CSC(c2cccnc2)N1c1ccc(Cl)cc1 (stereo not drawn)
    -2.9	8%	4%[15.4 µM]	8	0	-11
> CC(=O)Nc1cccc(C(=O)NCCc2ccco2)c1
    -4.2	8%	-7%[15.4 µM]	1	-2	-9
> COc1ccccc1C/C(N)=N/O
    1.0	2%	?	0	5	3
> Cc1nn(-c2cc(Cl)ccc2Cl)c(C)c1C(=O)O
    -2.3	1%	4%[15.4 µM]	3	3	-6
> CSc1ncc(CN2CCN(C3CCCC3)C(CCO)C2)cn1 (stereo not drawn)
    -1.3	1%	3%	·	4	-5
> CCOc1cc(C(=O)N(C)Cc2cc3ccccc3[nH]c2=O)cc(OCC)c1OCC
    -2.6	1%	?	15	7	-2
> OC1CSc2nc3ccccc3n2C1 (stereo not drawn)
    2.4	·	22%[15.4 µM]	1	4	-8
> CCn1c(SCC(=O)NNC(=O)c2ccc(C)cc2)nnc1C(C)C
    -2.4	-2%	23%	7	-4	0
> COc1ccc(S(=O)(=O)N2CCOCC2)cc1C(=O)N(C)Cc1ccccc1F
    0.2	6%	?	·	3	7
> CC(=O)Nc1ccc(S(=O)(=O)N(C)c2ccc(OCC(=O)OCC(=O)NCc3ccco3)cc2)cc1
    -3.2	-21%	-19%	4	6	-8
> O=C(O/N=C/c1ccc(Cl)cc1)C1CCCCC1
    -1.4	7%	-5%[15.4 µM]	13	9	-3
> CCc1nnc(SCc2ccc(C(=O)OC)o2)n1N
    -1.2	-1%	-7%	0	6	-3
> CCc1ccc(CNC(=O)CN2C(=O)COc3ccccc32)cc1
    -0.5	5%	8%	53	17	2
> S=C(NCCN1CCCCC1)Nc1ccc(Br)cc1
    -2.4	14%	9%[15.4 µM]	-3	4	-21
> CCOc1ccc2ccccc2c1CNCCc1ccc(S(N)(=O)=O)cc1
    6.7	10%	28%	·	3	-6
> C[C@H](CO)N1C[C@H](C)[C@@H](CN(C)S(=O)(=O)c2cccs2)Oc2c(NC(=O)NC3CCCCC3)cccc2C1=O
    -0.4	-21%	3%	-1	-3	-2
> CCOC(=O)C(NS(=O)(=O)c1ccc(C)cc1)(C(F)(F)F)P(=O)(OCC(C)C)OCC(C)C (stereo not drawn)
    -3.6	13%	-13%[15.4 µM]	0	?	-10
> CCS(=O)(=O)N1CCC(C(=O)NCC2CCCO2)CC1 (stereo not drawn)
    0.0	-3%	13%	3	6	-1
> Cc1ccc(C(=O)c2nocc2C(=O)c2cccs2)cc1
    1.3	-7%	2%	3	6	1

Remaining list, next part.
Order of values – D2 ag	gsp antagonist	gsp ag	CtBP-E1A inh	Six1-Eya2 blk	D2 potentiator
> O=C1CC2(CCN1)CCN(Cc1ccccc1)CC2
    -5.1	-3%	-23%	16	3	-8
> O=C(NCCc1nc2ccccc2[nH]1)/C(=C/c1ccco1)NC(=O)c1ccc(Br)cc1
    -4.3	-15%	-2%	?	?	-28
> COc1ccc(S(=O)(=O)NNC(=O)c2ccc([N+](=O)[O-])cc2)cc1
    4.0	9%	-47%[inhibitor]	14	-2	1
> Cc1ccc(Nc2nc(N)c([N+](=O)[O-])c(N3CCCC(C)C3)n2)cc1C (stereo not drawn)
    0.0	6%	16%[15.4 µM]	-5	5	-2
> N/C(=N\OC(=O)c1ccc([N+](=O)[O-])cc1)c1ccccn1
    ?	1%	-4%	·	11	1
> O=C(NCCCN1CCOCC1)c1onc(CSc2ccncc2)c1C(=O)NCCCN1CCOCC1
    0.6	2%	-11%	8	-2	-7
> COc1ccc(OCC(=O)N/N=C(\C)CC(=O)Nc2ccc(OC)cc2[N+](=O)[O-])cc1
    6.9	-5%	-51%	·	-3	-10
> C=C(C)CNC(=S)NNC(=O)c1ccco1
    3.2	2%	16%	13	8	9
> S=C(NCc1ccc(Cl)cc1)NCc1ccccn1
    -0.1	12%	14%	-5	-3	-23
> CCOC(=O)C1=C(C)NC(=O)NC1c1cccc(OC)c1OCc1ccccc1Cl (stereo not drawn)
    -1.1	1%	?	12	4	-3
> O=C(NC1CCN(c2ncccn2)CC1)c1ccccc1F
    -0.9	7%	0%	·	14	-5
> O=C(Nc1ccc(Cl)cn1)Nc1ccccc1F
    -4.0	0%	-13%	1	5	0
> COc1ccc2c(c1OC)C(=O)OC2Nc1ccc(S(=O)(=O)N=C(N)N)cc1 (stereo not drawn)
    -4.2	2%	20%	-9	1	-7
> COC(=O)C1=C2SC(C)C(=O)N2C(N)=C(C#N)C1c1cc(OC)c(OC)c(OC)c1 (stereo not drawn)
    -1.8	1%	-19%	1	-3	-16
> CSCCC1NC(=O)N(CC(=O)N2N=C(c3ccc(Cl)cc3)CC2c2ccco2)C1=O (stereo not drawn)
    -4.6	8%	-16%	-17	-16	-8
> O=C(O)c1ccc(NC(=O)c2cn(-c3ccccc3)nc2-c2cccc(Cl)c2)cc1
    ?	?	-27%	0	-3	20
> COCCN1CCN(C(=O)c2cc(COc3cc(C)ccc3C)on2)CC1
    8.7	6%	-1%	·	-1	-3
> Cc1nnc(SCC(=O)N2CCCc3ccccc32)[nH]c1=O
    0.8	-19%	-47%[inhibitor]	-6	3	-12
> Cc1cccc(CCN(C(=O)c2snc(C(N)=O)c2N)C(C(=O)NCC2CCCO2)c2ccc(F)cc2)c1 (stereo not drawn)
    0.6	?	-16%	-3	-12	0
> CCCCCCOC(=O)Cc1c(C)nc(N)[nH]c1=O
    -2.0	-6%	-14%[15.4 µM]	4	-5	4

The list goes on:
Order of values – D2 ag	gsp antagonist	gsp ag	CtBP-E1A inh	Six1-Eya2 blk	D2 potentiator
> Cc1ccc(S(=O)(=O)c2nnn3c2nc(N2CCC(C(N)=O)CC2)c2ccccc23)cc1C
    1.0	9%	?	?	?	-25
> CC(C)CN(CC(C)C)S(=O)(=O)N1CCC(C(=O)NCCc2ccc(Cl)cc2)CC1
    -3.1	-11%	1%	3	6	-11
> COc1ccc(S(N)(=O)=O)cc1C(=O)N(C)CC(=O)Nc1ccc(N2CCOCC2)cc1
    2.4	7%	-30%[inhibitor]	-8	4	-7
> COCC(=O)N(CCc1ccc(OC)c(OC)c1)Cc1cc2cc(C)ccc2nc1Cl
    0.7	-6%	17%[15.4 µM]	2	5	-5
> O=C(CSc1nnc(SCc2cccc3ccccc23)s1)N/N=C/C=C/c1ccccc1[N+](=O)[O-]
    2.0	3%	11%	-12	-6	-7
> Fc1ccccc1/C=C/c1ccc2ccccc2n1
    -1.1	-4%	24%	8	33	-13
> Cc1sc2nc(-c3ccccc3F)oc(=O)c2c1C
    -0.8	·	10%	3	-3	-7
> O=C1Nc2ccccc2/C1=C/C(=O)c1cccs1
    -5.1	24%	-15%	-12	-3	-11
> CCCC(C)n1[nH]c(=O)cc1N (stereo not drawn)
    1.0	8%	?	1	7	3
> Cc1ccc(C)c(N(CC(=O)NC2CCCC2)C(=O)c2oc(C(C)(C)C)cc2C)c1
    -1.8	-23%	-58%[inhibitor]	8	-5	-18
> CCOC(=O)N1CCN(S(=O)(=O)c2ccc([N+](=O)[O-])cc2)CC1
    0.1	2%	-3%[15.4 µM]	0	-1	9
> COc1cc2c(cc1OC)CN(C(=O)COc1ccccc1[N+](=O)[O-])CC2
    -1.8	4%	-8%	0	2	-1
> CCc1n[nH]c(=O)c2cc3cc(OC)ccc3n12
    4.4	3%	-13%	8	-7	-4
